eIF4H FP inh – inhibitors of RNA binding by human eIF4H | eIF4H fluorescence polarization binding assay | inhibition, % at 35 µM | hit rate 0.94% among 290,000;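 active means 50% or more with normal probe brightness, or confirmed in later tests; about a fifth of its hits are not listed in these tables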;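 further: calls also rest on retests at 20 µM and on dose response follow-up; 0% = protein and probe with vehicle and 100% = probe without protein; strong numbers were not always called active; many hits fall short of the cut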
PABP FP inh – blocks human PABP binding to poly(A) RNA; inhibition, % at 35 µM; P11940; fluorescence polarization; AID 2014; hit rate 1% among 290,000;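 active means 50% or more with normal probe brightness, or confirmed in later tests; about a fifth of its hits are not listed in these tables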;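 further: calls also rest on retests at 20 µM and on dose response follow-up; controls were probe without protein and protein plus probe with vehicle; some compounds called inactive have numbers as strong as hits; many hits fall short of the cut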
UUG fidelity – alters start codon recognition fidelity in yeast; activity score, % at 18.7 µM; AID 602363; hit rate 0.13% among 350,000; S. cerevisiae UUG-firefly luciferase reporter, luminescence/redox ratio;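 active means replicate mean at a twofold rise or more, about +100% in these data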;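 further: firefly luciferase made from a UUG start codon reports start codon fidelity; reporter light over untreated wells divided by growth signal over untreated wells; some hits fall short of that in this replicate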
MT1-MMP act inh – MT1-MMP (human) activation inhibition | P50281 | hit rate 0.061% among 360,000 | GFP/RFP ratio change, % at 20 µM | HT1080 RFP-PRO-GFP cells, GFP/RFP ratio fluorescence, overnight; percent of plate control window, DMSO zero;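 active means GFP/RFP ratio change of at least 30% with cell ATP level not reduced by more than half and red fluorescence within 50% of control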; further: strong numbers were not always called active
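Assay system: RFP-PRO-GFP reporter HT1080 cells; read-out basis: GFP/RFP fluorescence ratio; benchmarks: DMSO wells and RFP-L50D-GFP cells; doses: 20 µM single dose, 1% DMSO; schedule: overnight cell settling, then overnight compound exposure, 37 °C, 5% CO2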
Env fusion inh – inhibitors of HIV Env-mediated cell fusion. HeLa-JRFL Env/CEM21 cell fusion, luciferase. inhibition, % at 12.3 µM. hit rate 1.1% among 360,000. AID 651610;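 active means mean replicate inhibition score of at least 50 and every replicate individually at or above 50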;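 further: 0% = plate neutral controls and 100% = maraviroc near 300 nM; one replicate is shown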
Rce1 inhib – blocks yeast Ras-converting enzyme; hit rate 0.27% among 290,000; calls only; yeast membranes, quenched prenylated peptide cleavage fluorescence;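 active means fall in fluorescence gain of 50% or more versus controls, with final raw signal at or below 3038400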;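 further: plate controls were neutral control wells for no effect and wells lacking membranes for full effect; tested at 10 µM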
Target sequence (Q03530 whole entry, looked up): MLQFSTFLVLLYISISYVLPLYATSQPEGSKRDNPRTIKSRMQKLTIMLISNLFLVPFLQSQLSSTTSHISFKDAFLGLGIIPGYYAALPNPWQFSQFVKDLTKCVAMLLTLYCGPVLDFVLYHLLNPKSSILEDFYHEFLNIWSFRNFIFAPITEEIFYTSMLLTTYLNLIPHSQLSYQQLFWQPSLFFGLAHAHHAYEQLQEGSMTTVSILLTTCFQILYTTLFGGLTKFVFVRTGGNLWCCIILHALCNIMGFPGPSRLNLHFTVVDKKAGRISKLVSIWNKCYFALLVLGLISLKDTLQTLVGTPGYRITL
CSC inhib – cancer stem cell inhibition; cancer stem cell-like cells viability, luminescence; hit rate 1.1% among 300,000; AID 2717; inhibition, % at 7.5 µM;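 active means mean at 75% or more and at least half the replicates too; tested in HMLE shEcad cells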;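 further: 0% = median of negative and 100% = median of positive control wells; the first replicate is given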
MT1-MMP act inh RFP – further read-out of MT1-MMP act inh, marked with its call; RFP signal change, %; measured here: RFP expression control read;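 0 = vehicle wells; hits needed this value within 50% of zero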
Starred values were filed as active, the others as inactive; i = inactive; · = no result given; & = joins results of further samples; [ ] = remark or other dose.

SMILES | eIF4H FP inh | PABP FP inh | UUG fidelity | MT1-MMP act inh | MT1-MMP act inh RFP | Env fusion inh | Rce1 inhib | CSC inhib
Cc1ccccc1C(=O)Nc1cccc(-c2cn3ccccc3n2)c1 | -6 | 4 | · | 13 | -5 | -11 | i | -15
O=C1NN=C(c2ccc(Cl)cc2)CC1c1cccc(Br)c1 (stereo not drawn) | -8 | -7 | · | -3 | -3 | 2 | i | 8
Cc1ccccc1OCCC(=O)OCC(=O)NC(C)c1ccccc1 (stereo not drawn) | 0 | 3 | · | 1 | 3 | 18 | i | -2
COc1ccc(C(=O)NCc2ccccc2CN2CCCC2)cc1S(=O)(=O)Nc1ccc(C)cc1 | · | · | -13 | -9 | -1 | · | · | 2
CCOC(=O)N1CCN(C(=O)COC(=O)CN(C)S(=O)(=O)c2ccc(NC(C)=O)cc2)CC1 | 7 | 2 | -13 | 4 | 9 | 4 | i | -14
CC1(C)CC2CC(C)(CN2C(=O)C23CCC(C)(C(=O)O2)C3(C)C)C1 (stereo not drawn) | 5 | -4 | -12 | -1 | 3 | 6 | i | -27
COc1ccc2c(Cl)c(C(=O)N/N=C/c3ccc4c(c3)OCO4)sc2c1 | 0 | 7 | -20 | 11 | -3 | · | i | 43
CN(C)C(CNC(=O)c1cccc(S(=O)(=O)Nc2ccc(SC(F)F)cc2)c1)c1ccccc1 (stereo not drawn) | · | · | -9 | 1 | -2 | -12 | · | ·
COCCN(Cc1cc2ccc(C)cc2n2nnnc12)Cc1nnnn1C(C)(C)C | 4 | -12 | -8 | -3 | -4 | · | i | -13
COc1ccc(NC(=O)CNC(=O)c2c(C)nn(C)c2Cl)cc1 | -1 | 9 | -11 | 0 | -5 | -116 | i | -10
Cc1noc(C)c1CSCC(=O)Nc1cc(S(=O)(=O)N2CCOCC2)ccc1OCC(F)(F)F | · | · | · | 2 | 4 | -20 | i | ·
Nc1n[nH]c(N)c1N=Nc1ccccc1 | 10 | 7 | · | 1 | 0 | 11 | i | -10
COc1ccc(OCC(O)CN2CCc3ccccc3C2)cc1 (stereo not drawn) | -17 | -3 | -19 | 0 | 0 | -8 | i | -8
COc1ccccc1NC(=O)c1cc(Sc2nncn2C)nc2ccccc12 | -6 | -5 | -23 | 5 | 2 | · | i | -17
O=C(CSc1nnc(-c2ccccc2O)o1)N1CCc2ccccc2C1 | -20 | -3 | 10 | -1 | -2 | -23 | i | -2
Cc1[nH]c2ccccc2c1C(=O)C(=O)NCC1CCCO1 (stereo not drawn) | 0 | 0 | · | -2 | 2 | -9 | i | -4
CCOc1ccccc1N=Nc1c(C)[nH]n(C(N)=S)c1=O | 40 | 0 | -19 | -6 | -1 | -21 | i | -6
O=C(CCc1ccccc1)N=C1SC2CS(=O)(=O)CC2N1c1ccccc1 (stereo not drawn) | · | · | -12 | 0 | -1 | 12 | i | -7
CCOC(=O)c1ccc(-c2ccc(/C=N/NC(=O)Cc3nnc(N)s3)o2)cc1 | 11 | 16 | · | 5 | 6 | -60 | · | -11
c1ccc2c(NCC3CCCO3)nc(-c3ccncc3)nc2c1 (stereo not drawn) | -10 | -6 | -24 | 11 | -2 | -32 | i | 4
CCO[C@@H]1OC(C(=O)N2CCN(Cc3ccc4c(c3)OCO4)CC2)=C[C@H](c2cn(C(C)=O)c3ccccc23)[C@H]1CCCO | -13 | 2 | -2 | 0 | -6 | -7 | i | -4
Cc1noc(C)c1CSc1nc2ccccc2nc1NS(=O)(=O)c1ccc(Cl)cc1 | -7 | 24 | -16 | -9 | -21 | · | i | 82*
CCN(CC(=O)NCc1cccs1)C(=O)c1ccc(-c2ccc(F)cc2)o1 | · | · | -13 | -6 | -5 | · | · | -18
CCOC(=O)c1c(-c2ccc(-c3ccccc3)cc2)csc1NC(=O)c1cccc(N2C(=O)CCC2=O)c1 | 8 | 6 | · | -10 | -9 | -4 | i | 23
NC(=O)N1CCCC1C(=O)Nc1ccc(Cl)c(Cl)c1 (stereo not drawn) | -4 | 6 | -4 | -4 | 7 | -2 | i | 18
CCSc1nnc(NC(=O)C(C(F)(F)F)C(F)(F)F)s1 | -11 | 8 | -14 | -1 | 4 | -60 | i | 8
OCCN(Cc1ccccc1)c1ncnc2sccc12 | -5 | -5 | -9 | 0 | -13 | 11 | · | 2
Cc1ccc(-n2nc(C)c3c(C)c(CCC(=O)NCC4CCCO4)c(=O)n(C)c32)cc1 (stereo not drawn) | -8 | -2 | -8 | -6 | -13 | 0 | i | 1
Cc1ccc(NC(=O)c2ccco2)c(NC(=O)c2ccccc2)c1 | 0 | 1 | -10 | 1 | -3 | -6 | i | -7
Cc1cccc(NC(=O)CSc2nc3ccccc3o2)c1 | 1 | -2 | -16 | -2 | -1 | -84 | i | -8
CCN1C(=O)c2ccccc2S(=O)(=O)c2ccc(C(=O)NCC(OC)OC)cc21 | 6 | 0 | -16 | 1 | 3 | -7 | i | -6
COc1ccc(Br)cc1C1Nc2ccccc2C(=O)N1NC(=O)c1ccncc1 (stereo not drawn) | -3 | 6 | 4 | -13 | -5 | · | i | -2
CN(c1ccccc1)c1nc(N)c([N+](=O)[O-])c(Nc2ccc(F)cc2)n1 | -2 | -2 | -7 | -3 | -3 | 16 | i | -7
COc1ccc(-c2nc3ccccc3c(C(=O)Nc3ccc(S(=O)(=O)Nc4cc(C)on4)cc3)c2C)cc1 | 20 | 4 | -13 | -3 | -4 | · | i | 33
O=C1CCCc2ccccc2N1Cc1cccc(F)c1 | 2 | -8 | · | -2 | 3 | -12 | i | -10
Cc1n(-c2ccccc2)c2ccc(Cl)cc2[n+]1CCO | 1 | 64* | · | -8 | -2 | 7 | i | -16
C[C@H](CO)N1C[C@H](C)[C@@H](CN(C)C(=O)Nc2ccccc2)Oc2ccc(NC(=O)Nc3ccc(C(F)(F)F)cc3)cc2C1=O | · | · | -1&-11 | 25 | -5 | 10 | · | ·
COc1ccc(C2C(C#N)=C(N)Oc3c2oc(CO)cc3=O)cc1 (stereo not drawn) | 1 | 5 | -2 | -3 | -1 | -10 | i | ·
Cc1ccc(NC(=O)COC(=O)c2nn(C)c(=O)c3ccccc23)cc1F | · | · | 9 | 3 | 2 | 7 | · | -18
O=C(NCCO)c1cccc2c1-c1ccccc1C2=O | -10 | -1 | · | 1 | 5 | 10 | i | ·
O=C1C=C(c2ccc3[nH]ccc3c2)CCC1 | · | · | -1 | 2 | 4 | -103 | i | -6
COc1ccc(NCc2nnc(SCC(=O)Nc3ccc(OC)cc3OC)o2)cc1 | -4 | -4 | · | 0 | 1 | -14 | i | 2
CCCOc1ccc(N2C(=O)CC(N3CCCC(C(=O)N4CCCC4)C3)C2=O)cc1 (stereo not drawn) | 4 | 5 | -22 | 0 | 4 | · | i | -12
O=C(Nc1ccccc1C(=O)NC(Cc1ccc(O)cc1)C(=O)O)c1ccccc1 (stereo not drawn) | -9 | -12 | -2 | 2 | 8 | -18 | i | -11
CCOC(=O)C1C(=O)C=C(Nc2ccccc2F)CC1c1ccccc1 (stereo not drawn) | 5 | 5 | · | -7 | 0 | -21 | i | -4
CCN(C(=O)COC(=O)CNC(=O)c1ccc(F)cc1)C1CCS(=O)(=O)C1 (stereo not drawn) | -10 | -6 | · | -4 | 1 | 22 | i | -18
Cc1ccc(NC(=O)C2CCCN(S(=O)(=O)c3c(C)noc3C)C2)c(Br)c1 (stereo not drawn) | -9 | 5 | -8 | 5 | 2 | 1 | i | 5
Cc1cccc(-n2c(C)cc(/C=N/NC(=O)c3ccc(CN4CCOCC4)cc3)c2C)c1 | -2 | 19 | -10 | -1 | -5 | · | i | 5
CCC(=C(c1ccc(O)cc1)c1ccc(OCCN(C)C)cc1)c1ccccc1 | · | · | -1 | 0 | 6 | 3 | · | ·
COCCC(=O)Nc1ccc2c(c1)CN(C(=O)CCSC)CC2 | -1 | -2 | 2 | 1 | 1 | -2 | i | 14
CCN1CC(CN(C)Cc2cn(-c3cccc(C)c3)nc2-c2cccc(F)c2)CC1=O (stereo not drawn) | -3 | 1 | 4 | 1 | -6 | 33 | i | -1
Cc1ccc(-c2nnn(CC(=O)N3c4ccccc4CCc4ccccc43)n2)cc1 | -5 | -4 | -14 | -6 | -12 | · | i | 14
CCCCCCCCOc1ccc(C2CC(=O)NC2=O)cc1 (stereo not drawn) | -8 | -3 | -3 | 0 | 0 | 4 | i | -2
Cc1cc(C(=O)OCC(=O)NCc2ccco2)c(C)n1-c1ccc(F)cc1 | -13 | 0 | 10 | 4 | -13 | · | i | 56
COc1cc(C2=NOC(C(=O)NC3CCCCC3)C2)cc(OC)c1OC (stereo not drawn) | -7 | 6 | -5 | 1 | 1 | 8 | i | 7
COc1ccc(NC(=O)Nc2ccc3c(c2)CCC3)cc1 | -2 | -4 | -20 | 3 | 2 | -35 | i | -3
CCCCn1c(N)c(N(CC)C(=O)CSCC(=O)Nc2ccc(OC)cc2)c(=O)[nH]c1=O | · | · | 13 | -5 | -6 | -9 | i | ·
COc1ccc(-c2cc(C(=O)N3CCCCC3)c3ccccc3n2)cc1OC | 0 | 2 | 9 | 0 | -2 | 2 | i | 9
O=C(/C=C/c1ccccc1F)N1CCN(c2ccccn2)CC1 | -5 | 5 | -17 | 1 | 3 | 21 | i | -2
CC(C)c1c(C(=O)N/N=C/c2ccc(Cl)cc2Cl)nnn1-c1nonc1N | -15 | -2 | -4 | 2 | -2 | 0 | i | -3

6 of these compounds in a different format.
Compound	eIF4H FP inh	PABP FP inh	UUG fidelity	MT1-MMP act inh	MT1-MMP act inh RFP	Env fusion inh	Rce1 inhib	CSC inhib
CCC(=C(c1ccc(O)cc1)c1ccc(OCCN(C)C)cc1)c1ccccc1	·	·	-1	0	6	3	·	·
COCCC(=O)Nc1ccc2c(c1)CN(C(=O)CCSC)CC2	-1	-2	2	1	1	-2	i	14
CCN1CC(CN(C)Cc2cn(-c3cccc(C)c3)nc2-c2cccc(F)c2)CC1=O (stereo not drawn)	-3	1	4	1	-6	33	i	-1
Cc1ccc(-c2nnn(CC(=O)N3c4ccccc4CCc4ccccc43)n2)cc1	-5	-4	-14	-6	-12	·	i	14
CCCCCCCCOc1ccc(C2CC(=O)NC2=O)cc1 (stereo not drawn)	-8	-3	-3	0	0	4	i	-2
Cc1cc(C(=O)OCC(=O)NCc2ccco2)c(C)n1-c1ccc(F)cc1	-13	0	10	4	-13	·	i	56

Following part:
SMILES | eIF4H FP inh | PABP FP inh | UUG fidelity | MT1-MMP act inh | MT1-MMP act inh RFP | Env fusion inh | Rce1 inhib | CSC inhib
Cc1cccc(CCNC(=O)c2nnc(Cc3ccc(Cl)cc3)o2)c1 | 0 | -2 | 5 | 4 | 6 | -10 | i | -2
Clc1ccc(-c2cn3cc(Br)ccc3n2)cc1Cl | 1 | 13 | · | 0 | 1 | -152 | i | 19
COC(=O)CCC(=O)OC1(C)C(=O)C2=CN(CCN3CCOCC3)C(c3ccc(OC)cc3)=CC2=C(Br)C1=O (stereo not drawn) | 42 | 34 | · | · | · | · | i | -2
COC/C=C/C1=CC(=O)C[C@H](c2ccc3c(c2)OCO3)C1 | · | · | -12 | -4 | -2 | 24 | · | 1
CCCCC(=O)NC(=S)Nc1cccc(Cl)c1N1CCCCC1 | -4 | -3 | -7 | -3 | -11 | -9 | i | ·
CC(OC(=O)c1ccc(-n2cnnn2)cc1)C(=O)NCc1ccccc1 (stereo not drawn) | · | · | -2 | 0 | 2 | -5 | i | -19
CN(C)Cc1ccccc1CNC(=O)c1ccc(Cl)c(S(=O)(=O)NC2CC2)c1 | · | · | -16 | 2 | 2 | -17 | · | ·
CN(C)c1nc(OCCNC(=O)COc2ccc(Cl)cc2Cl)nc(N2CCOCC2)n1 | 9 | 2 | -12 | -5 | 0 | 41* | i | -12
NC(=O)COc1ccccc1 | 1 | -1 | · | 1 | 0 | 7 | i | -4
CC(C)OC(=O)N(C)C[C@@H]1OCc2cnnn2CCCC(=O)N([C@@H](C)CO)C[C@@H]1C | · | · | -14&-2&8 | -2 | 3 | -15[16.7 µM] | · | ·
